Compound activity deposited in PubChem BioAssay by National Center for Advancing Translational Sciences (NCATS).
VACV mCherry inh – inhibitors of vaccinia virus infection (mCherry reporter signal). 310,000 tested, 0.63% active. Potency, µM (highest dose often 36.5 µM), for the others: at the top dose activity change, negative = inhibition, actives largely listed as inhibitors. Vaccinia virus mCherry reporter infection, fluorescence; about a quarter of the inactives have no number; active = well fitted inhibition curve with a large enough effect; inconclusive = small, poorly fitted or top-dose-only effect; inactive = no such curve, though single readings can be large or run the other way; tested in A549 cells; also: nearly all actives have a fitted effect of over 35% in size; inactives centre near -10
VACV Venus inh – inhibitors of vaccinia virus (Venus reporter); Vaccinia virus Venus reporter expression, fluorescence; Potency, µM (highest dose often 36.5 µM), for the others: top-dose activity change, negative = inhibition, hits mostly inhibitors; 330,000 tested, 0.46% active; AID 720580; active means well fitted inhibition curve with a large enough effect; inconclusive means small, poorly fitted or top-dose-only effect; inactive means no such curve, though single readings can be large or run the other way; tested in A549 cells; also: nearly all actives have a fitted effect of over 30% in size; inactives centre near -10
* = called active by the depositor; i = inactive; ? = inconclusive; / = no result given; [ ] = another dose, or the depositor's remark. % is scaled to controls: 0 for no effect and ±100 for the full control effect; potency is read from the fitted curve at half-maximal effect.

SMILES | VACV mCherry inh | VACV Venus inh
Cc1ccc(-c2nn3c(C)nnc3s2)cc1NC(=O)C(C)C | -9.9% | 0.7%
COc1ccc(-c2nnn(CC(=O)N(CCCO)C(C(=O)NC3CCCC3)c3ccc(F)cc3)n2)cc1 (stereo not given) | -8.4% | 0.0%
Cc1cc(C)n(C(=O)c2ccc(C)c(S(=O)(=O)N3CCOCC3)c2)n1 | / | -16.2%
C[C@@H]1NC(=O)[C@@]2(C)[C@@H](c3ccccc3)[C@H]3COc4ccccc4[C@@H]3N2C1=O | i | -3.5%
COc1ccc(OC)c(S(=O)(=O)NC(=O)C2(C)CCN2C(=O)Cc2ccccc2)c1 (stereo not given) | i | 4.4%
Cc1noc(C)c1S(=O)(=O)N(CC(=O)Nc1ccc2c(c1)OCCO2)c1ccc(C(C)C)cc1 | -20.0% | -25.2%
CC(C)OCCCNc1sc(S(=O)(=O)c2ccccc2)nc1S(=O)(=O)c1ccc(Cl)cc1 | 3.1% | -4.0%
Cc1sc2ncnc(N3CCC(C(=O)Nc4cc(Cl)ccc4Cl)CC3)c2c1C | -5.1% | -14.4%
O=C(Cc1ccc(Cl)cc1)Nc1ccc2nn(-c3ccccc3)nc2c1 | -6.7% | -4.4%
O=c1oc2ccccc2c(NCc2cccc(F)c2)c1[N+](=O)[O-] | -4.1% | -16.9%
CC(C)(C)NC(=O)C(c1ccc(C(F)(F)F)cc1)n1c(=O)c(-c2cc3ccccc3[nH]2)nc2ccccc21 (stereo not given) | ? | ?
CC(CCc1ccccc1)NC(=O)COC(=O)c1ccc(F)cc1 (stereo not given) | -7.7% | -8.5%
O=C(Nc1ccccc1C(=O)N1CCOCC1)c1cccnc1 | -4.1% | 7.2%
CCOC(=O)c1c(C)[nH]c(C(=O)COC(=O)c2ccc(O)cc2)c1C | -22.0% | -12.8%
Cc1nc(C)c(C(=O)Nc2ccccc2)s1 | / | -5.2%
CCOC(=O)c1ccc(NC(=O)Cc2ccc(-n3c(CC)nc4cccnc43)cc2)cc1 | -16.1% | -6.3%
CCC(CO)NCc1ccc(OCC(=O)Nc2cccc(C(F)(F)F)c2)c(OC)c1 (stereo not given) | i | -14.7%
COc1cccc(C(=O)CN2CCN(S(=O)(=O)c3cccc([N+](=O)[O-])c3)CC2)c1 | ? | -13.8%
CCOC(=O)N1CCN(C(=O)c2ccc3c(=O)n(Cc4ccc(OC)cc4)c(=S)[nH]c3c2)CC1 | 25.1% | 27.3%
Cc1ccccc1NC(=O)N(CCc1nc2ccccc2[nH]1)Cc1ccccc1 | / | -21.3%

A portion taken from the entries so far, for reference:
SMILES | VACV mCherry inh | VACV Venus inh
Cc1ccc(-c2nn3c(C)nnc3s2)cc1NC(=O)C(C)C | -9.9% | 0.7%
COc1ccc(-c2nnn(CC(=O)N(CCCO)C(C(=O)NC3CCCC3)c3ccc(F)cc3)n2)cc1 (stereo not given) | -8.4% | 0.0%
Cc1cc(C)n(C(=O)c2ccc(C)c(S(=O)(=O)N3CCOCC3)c2)n1 | / | -16.2%
C[C@@H]1NC(=O)[C@@]2(C)[C@@H](c3ccccc3)[C@H]3COc4ccccc4[C@@H]3N2C1=O | i | -3.5%

Next part.
SMILES | VACV mCherry inh | VACV Venus inh
CCN(CCn1cccn1)C(=O)CCc1nnc(-c2ccc3c(c2)OCO3)o1 | -10.8% | 11.8%
CCOc1ccc(NC(=O)CCNS(=O)(=O)c2ccc3c(c2)CC(C)N3C(C)=O)cc1 (stereo not given) | 8.4%[7.34 µM] | 2.9%[7.34 µM]
O=C(CCSc1nccn1Cc1ccccc1)N1CCOCC1 | i | -10.9%
COC(=O)C1NN=C(C(=O)c2ccccc2)C1c1ccccc1 (stereo not given) | i | -4.1%
COc1ccc(CCNC(=O)C2CCCN(C(=O)N(C)C)C2)c(OC)c1 (stereo not given) | i | -3.5%
CCN(CC)C(=O)CSc1nnc(-n2nc(C)cc2C)c2ccccc12 | -16.5% | -3.5%
COc1ccc(-c2nnc(SC(C)C(=O)O)o2)cc1 (stereo not given) | 3.0% | 12.5%
Cc1cc(C(=O)N2CCC(Cc3ccccc3)CC2)c(C)o1 | -26.2% | -16.8%
Cc1ccc(NC(=O)c2ccccc2NC(=O)c2cccnc2)cc1 | -3.0% | -8.5%
COc1cc(Nc2nc(SCc3ccc(Cl)cc3)nc3ccccc23)cc(OC)c1 | -4.2% | -15.6%
CC(C(=O)c1ccccc1)N1C(=O)c2ccccc2C1=O (stereo not given) | i | -7.7%
CN(Cc1ccccc1)C(=O)c1[nH]cnc1C(=O)Nc1ccc(Cl)cc1 | ? | ?
COC(=O)c1cc2c(s1)CS(=O)C2 (stereo not given) | -9.6% | -9.0%
CCOC(=O)Cn1nc(C)c(NC(=O)c2ccc([N+](=O)[O-])c(C)c2)c1C | i | -12.6%
O=C(Cn1nc(N2CCN(c3ccccc3)CC2)ccc1=O)NCc1ccccc1F | -9.2% | -10.3%
O=C(NCCC1=CCCCC1)C1CC(=O)N(C2CCCCC2)C1 (stereo not given) | i | 0.0%
CC(=O)c1ccc(N2CCN(C(=O)CCCCn3c(=O)[nH]c4ccccc4c3=O)CC2)cc1 | -17.0% | -14.6%
COc1cc(NC(=O)CCC(=O)N2CCN(S(=O)(=O)c3ccc(C)cc3)CC2)cc(OC)c1 | -1.7% | -25.2%
C[C@H]1CN([C@@H](C)CO)C(=O)CCCn2nncc2CO[C@@H]1CN(C)Cc1ccc(Oc2ccccc2)cc1 | -10.5% | -18.7%
Cc1cc(S(=O)(=O)Nc2nc(CN3CCOCC3)nc3sc4c(c23)CCCC4)ccc1F | / | -27.1%
CCC1CCCCN1CCCNC(=O)c1c(C)oc2ncn(CC(C)C)c(=O)c12 (stereo not given) | i | -10.7%
O=C(c1cc(F)c(F)cc1Cl)N1CCCc2ccccc21 | -24.4% | -8.6%
CC(=O)NCc1cc(-c2nn(C)c(=O)c3ccccc23)ccc1C | -9.5% | -6.6%
Cc1ccc(-n2nnnc2SCC(=O)Nc2ccccc2-c2ccccc2)cc1C | -0.6% | -4.4%
Cc1ccc2occ(CC(=O)Nc3c(C(=O)Nc4ccc(Cl)cc4)oc4ccccc34)c2c1 | -14.6% | -19.1%
O=C(Nc1ccc(F)cc1)NC1CCN(Cc2c(F)cccc2Cl)CC1 | -0.9% | ?
COc1cccc(/C=N/NC(=O)CCc2ccccc2)c1 | -7.5% | -8.5%
Cc1nnc(SCc2cc(=O)[nH]c(/N=C(\N)Nc3ccccc3)n2)s1 | -7.3% | -9.2%
O=C(O)C1CCCN1c1nc(C(F)(F)F)nc2ccccc12 (stereo not given) | i | -12.3%
CNC(=S)N/N=C/c1ccc(-c2cccc(C(=O)O)c2)o1 | -1.8% | -7.5%
CCc1cc(C(=O)N2CCN(c3ncc(C(F)(F)F)cc3Cl)CC2)sc1C | -5.5% | 8.3%
CC(C)n1c(=O)[nH]c2cc(C(=O)Nc3ccccc3)ccc21 | ? | -17.2%
COC(=O)c1ccc(-n2nnnc2SCc2ccccc2OC)cc1 | i | -9.9%
Cc1ccccc1Nc1nc(N)nc(COC(=O)c2ccc(S(=O)(=O)N(C)C)cc2)n1 | -1.5% | -0.5%
Cc1ccc2cc3cc(C(=O)N4CCCCC4C)oc3nc2c1 (stereo not given) | ? | -20.4%
O=C(O)C1C2C=CC(C2)C1C(=O)NCc1ccccc1 (stereo not given) | i | 6.0%
Cc1cc(C)c(C#N)c(SCSCc2ccccc2)n1 | -16.8% | -17.3%
Cc1cc(NC(=O)C2C3C(=O)N(c4cccnc4)C(C(=O)NC(C)(C)C)C34C=CC2(C)O4)no1 (stereo not given) | 8.1% | -0.6%
CN1C(=O)c2cccc(NCCCN3C(=O)c4ccccc4C3=O)c2C1=O | i | -12.9%
O=C(O)c1ccccc1Sc1ncnc2sc3c(c12)CCC3 | i | -6.9%

7 compounds from above, arranged by SMILES length, lowest first:
SMILES | VACV mCherry inh | VACV Venus inh
O=C(c1cc(F)c(F)cc1Cl)N1CCCc2ccccc21 | -24.4% | -8.6%
Cc1ccc2cc3cc(C(=O)N4CCCCC4C)oc3nc2c1 (stereo not given) | ? | -20.4%
COC(=O)c1ccc(-n2nnnc2SCc2ccccc2OC)cc1 | i | -9.9%
CNC(=S)N/N=C/c1ccc(-c2cccc(C(=O)O)c2)o1 | -1.8% | -7.5%
CC(C)n1c(=O)[nH]c2cc(C(=O)Nc3ccccc3)ccc21 | ? | -17.2%
O=C(Nc1ccc(F)cc1)NC1CCN(Cc2c(F)cccc2Cl)CC1 | -0.9% | ?
Cc1ccc(-n2nnnc2SCC(=O)Nc2ccccc2-c2ccccc2)cc1C | -0.6% | -4.4%

Quoted from the listing:
CC(C)OCCCNc1sc(S(=O)(=O)c2ccccc2)nc1S(=O)(=O)c1ccc(Cl)cc1 in VACV Venus inh is listed with -4.0%
Cc1sc2ncnc(N3CCC(C(=O)Nc4cc(Cl)ccc4Cl)CC3)c2c1C in VACV mCherry inh is listed with -5.1%

New compounds follow
SMILES | VACV mCherry inh | VACV Venus inh
CCN(CC)CCN(Cc1cc2cc3c(cc2[nH]c1=O)OCCO3)C(=S)NCCCOC | -6.0% | -23.4%
COc1cccc(-c2cc(C(F)(F)F)nc(-n3nc(C)c(Br)c3C)n2)c1 | -15.1% | -17.5%
Cc1ccc(C)c(N2CCN(C(=O)CN3C(=O)CSc4c3c(C)nn4-c3ccccc3)CC2)c1 | -4.5% | -7.5%
COC(=O)C1=C(C(=O)OC)[C@@H]2N(C)c3ccccc3[C@@]23C[C@@H](C(=O)OC)N(C(=O)C2CCC2)C3=N1 | i | -14.3%
CC(C)Cn1c(N)c(C(=O)COC(=O)c2ccc(O)cc2)c(=O)n(C)c1=O | -12.0% | -13.6%
COc1ccc2c(=O)c3c(=O)n(Cc4ccccc4)c(C(C)C)nc3oc2c1 | -2.3% | -3.9%
Cc1cc(C)nc(N/N=C/c2cccc3ccccc23)n1 | i | -11.9%
CC(C)Oc1cc(F)ccc1-c1cc(C(=O)NCc2ccccn2)[nH]n1 | 0.0% | -5.3%
O=C(CSc1nc2ccccc2s1)Nc1ccc(N2CCOCC2)c(Cl)c1 | -15.1% | -11.6%
CCCC1(C)SC(NC(C)=O)=NN1C(C)=O (stereo not given) | -4.0% | -9.0%
COc1ccc(NC(=O)[C@H](Cc2ccccc2)N2Cc3ccccc3C2=O)cc1OC | -3.2% | -4.6%
COc1ccc(CNC(=O)CCOc2ccc(C(C)(C)C)cc2)cc1 | / | 1.1%
COc1ccc2oc(=O)c(C(=O)NCc3cccnc3)cc2c1 | / | -4.1%
O=S(=O)(c1ccc(Br)s1)N1CCNCC1 | -11.1% | -15.4%
N#Cc1c2n(c3c(=O)n(CC(=O)c4ccc(Br)cc4)cnc13)CCCC2 | / | -17.0%
CC(C)CC(=O)/C(=C\c1ccc(Cl)cc1Cl)n1cncn1 | ? | 12.6µM*
Cc1ccc(C(=O)N[C@H](C(=O)OCc2cc(=O)n3c(n2)sc2ccccc23)C(C)C)cc1 | -5.2% | -7.9%
COc1ccc(NC(=O)c2c(NCc3cccs3)sc3c2CCCCC3)cc1 | -6.4% | 1.3%
CN1C(=O)c2c(sc3c2CC(C)(C)SC3)N2CCN=C12 | -9.0% | 0.0%
CC(=O)Nc1ccc(NS(=O)(=O)c2ccc3c(c2)CC(C)N3C(=O)C2CCC2)cc1 (stereo not given) | -20.0% | -10.8%
O=C1COc2ccc(S(=O)(=O)CCC(=O)NC3CCCCC3)cc2N1 | -18.3% | -8.3%
COc1ccc(-n2nc(C(=O)NCC(=O)NCCC3=CCCCC3)c3ccccc3c2=O)cc1 | -13.8% | -18.4%
COc1ccc2c(c1)CC/C(=C\Nc1ccc3c(c1)OCO3)C2=O | -24.6% | -10.0%
CCOc1ccc(NC(=O)CSc2c3c(nc4ccccc24)CCCC3)cc1 | -16.0% | -22.9%
CC(=O)NCCc1nc2cc(NC(=O)c3ccc(F)cc3)ccc2n1C | i | -13.0%
O=C(CSc1nnc(-c2ccccc2)n1Cc1ccccc1)NC1CC1 | -13.1% | -2.3%
COc1cc(C(=O)NC(=S)Nc2ccc(N3CCCC3)cc2)cc(OC)c1OC | i | -6.5%
COc1ccccc1CNC(=O)C(C)c1ccc([N+](=O)[O-])cc1 (stereo not given) | -8.1% | -1.2%

Pulled by structure from the entries so far (6):
SMILES | VACV mCherry inh | VACV Venus inh
O=C(CSc1nnc(-c2ccccc2)n1Cc1ccccc1)NC1CC1 | -13.1% | -2.3%
CCOc1ccc(NC(=O)CSc2c3c(nc4ccccc24)CCCC3)cc1 | -16.0% | -22.9%
COc1ccccc1CNC(=O)C(C)c1ccc([N+](=O)[O-])cc1 (stereo not given) | -8.1% | -1.2%
CC(=O)NCCc1nc2cc(NC(=O)c3ccc(F)cc3)ccc2n1C | i | -13.0%
COc1cc(C(=O)NC(=S)Nc2ccc(N3CCCC3)cc2)cc(OC)c1OC | i | -6.5%
COc1ccc(-n2nc(C(=O)NCC(=O)NCCC3=CCCCC3)c3ccccc3c2=O)cc1 | -13.8% | -18.4%
